Screening results: PubChem, several laboratories
UUG fidelity: alters start codon recognition fidelity in yeast; S. cerevisiae UUG-firefly luciferase reporter, luminescence/redox ratio; activity score, % at 18.7 µM; 350,000 compounds, 0.13% hits;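 active means replicate mean at a twofold rise or more, about +100% in these data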;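 further: firefly luciferase made from a UUG start codon reports start codon fidelity; reporter light over untreated wells divided by growth signal over untreated wells; some hits fall short of that in this replicate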
CSC inhib: cancer stem cell inhibition | cancer stem cell-like cells viability, luminescence | inhibition, % at 7.5 µM | 300,000 compounds, 1.1% hits | AID 2717;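 active means mean at 75% or more and at least half the replicates too; inconclusive means mean and replicates disagree; tested in HMLE shEcad cells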;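 further: 0% = median of negative and 100% = median of positive control wells; the first replicate is given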
eIF4H inh: inhibitors of RNA binding by human eIF4H; Q15056; inhibition, % at 35 µM; 290,000 compounds, 0.94% hits; eIF4H fluorescence polarization binding assay;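 active means 50% or more with normal probe brightness, or confirmed in later tests; inconclusive means above 50% with abnormal brightness, or retests that disagree; inactive means below 50% or failed in later tests; about a fifth of its hits are not listed in these tables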;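 further: calls also rest on retests at 20 µM and on dose response follow-up; 0% = protein and probe with vehicle and 100% = probe without protein; strong numbers were not always called active; many hits fall short of the cut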
Env fusion inh: inhibitors of HIV Env-mediated cell fusion | HeLa-JRFL Env/CEM21 cell fusion, luciferase | inhibition, % at 12.3 µM | 360,000 compounds, 1.1% hits;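 active means mean replicate inhibition score of at least 50 and every replicate individually at or above 50; inconclusive means only one of the two criteria met; inactive means mean below 50 and not all replicates reaching 50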;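 further: 0% = plate neutral controls and 100% = maraviroc near 300 nM; one replicate is shown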
MT1-MMP act inh: inhibitors of human MT1-MMP activation. 360,000 compounds, 0.061% hits. HT1080 RFP-PRO-GFP cells, GFP/RFP ratio fluorescence, overnight; percent of plate control window, DMSO zero. AID 651647. GFP/RFP ratio change, % at 20 µM. P50281;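 active means GFP/RFP ratio change of at least 30% with cell ATP level not reduced by more than half and red fluorescence within 50% of control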; further: strong numbers were not always called active
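Material – HT1080 RFP-PRO-GFP cells · Control set – DMSO wells and RFP-L50D-GFP cells · Incubation – overnight cell settling, then overnight compound exposure, 37 °C, 5% CO2 · Compound dosing – single-point 20 µM compound, 1% DMSO · Read-out – GFP/RFP fluorescence ratio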
PABP polyA inh: PABP-poly(A) binding inhibition; P11940; PABP-poly(A) RNA binding, fluorescence polarization; inhibition, % at 35 µM; 290,000 compounds, 1% hits; AID 2014;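 active means 50% or more with normal probe brightness, or confirmed in later tests; inconclusive means above 50% with abnormal brightness, or retests that disagree; inactive means below 50% or failed in later tests; about a fifth of its hits are not listed in these tables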;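 further: calls also rest on retests at 20 µM and on dose response follow-up; controls were probe without protein and protein plus probe with vehicle; some compounds called inactive have numbers as strong as hits; many hits fall short of the cut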
Target sequence (P11940 whole entry, looked up): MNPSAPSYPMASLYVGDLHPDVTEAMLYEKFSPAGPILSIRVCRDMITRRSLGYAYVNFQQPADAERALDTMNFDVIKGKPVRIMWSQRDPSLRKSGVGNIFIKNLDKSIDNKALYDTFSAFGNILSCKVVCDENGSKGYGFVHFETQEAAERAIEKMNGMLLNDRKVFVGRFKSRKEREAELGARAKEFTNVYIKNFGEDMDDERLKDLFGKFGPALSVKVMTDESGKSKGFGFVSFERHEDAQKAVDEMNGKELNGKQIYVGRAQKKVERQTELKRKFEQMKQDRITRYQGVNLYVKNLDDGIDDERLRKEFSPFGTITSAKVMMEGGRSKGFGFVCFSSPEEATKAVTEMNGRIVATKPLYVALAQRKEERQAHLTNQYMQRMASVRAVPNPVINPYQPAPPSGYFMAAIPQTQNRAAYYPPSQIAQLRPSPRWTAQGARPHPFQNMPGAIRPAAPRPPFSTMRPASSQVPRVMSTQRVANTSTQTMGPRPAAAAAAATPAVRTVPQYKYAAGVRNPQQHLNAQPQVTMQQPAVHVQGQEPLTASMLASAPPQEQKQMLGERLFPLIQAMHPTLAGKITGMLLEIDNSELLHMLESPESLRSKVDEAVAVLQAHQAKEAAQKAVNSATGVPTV
Rce1 inh: yeast Ras-converting enzyme inhibition; AID 2563; calls only; Q03530; yeast membranes, quenched prenylated peptide cleavage fluorescence; 290,000 compounds, 0.27% hits;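 active means fall in fluorescence gain of 50% or more versus controls, with final raw signal at or below 3038400; inconclusive means same 50% fall but final raw signal above 3038400; inactive means fall in fluorescence gain under 50%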;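 further: plate controls were neutral control wells for no effect and wells lacking membranes for full effect; tested at 10 µM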
eIF4H inh retest: recorded beside eIF4H inh, whose call it bears; inhibition, %; compound at 20 µM; confirmation average;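 mean of two retest wells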
PABP polyA inh retest: recorded beside PABP polyA inh, whose call it bears; inhibition, %; compound at 20 µM; confirmation repeats;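 mean of two retest wells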
MT1-MMP act inh RFP: recorded beside MT1-MMP act inh, whose call it bears; RFP signal change, %; measured here: RFP expression control read;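 0 = vehicle wells; hits needed this value within 50% of zero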
Active calls of the source: *; i = inactive; ? = inconclusive; . = not tested or not shown; & = joins results of further samples; [ ] = dose if it differs, or a comment. Not all compounds are listed; rates above refer to the full screens.

SMILES	UUG fidelity	CSC inhib	eIF4H inh	Env fusion inh	MT1-MMP act inh	MT1-MMP act inh RFP	PABP polyA inh	Rce1 inh	others
COC(CNC(=O)c1cnn2c(C)c(Cc3ccccc3)c(C)nc12)OC	.	0	4	-3	-3	-8	-1	i
Cc1ccc(Nc2cc(C)nc(N3CCOCC3)n2)cc1	-18	.	-1	.	2	4	-4	i
Cc1ccc(S(=O)(=O)N2CCN(C(=O)c3ccccn3)CC2)cc1	-14	-10	-6	1	-1	1	7	i
CCOc1ccc(/C=N/NC(=O)c2nnn(-c3nonc3N)c2-c2ccc(OCC)cc2)cc1	-18	-1	3	22	0	2	-3	i
CCN1C(N(C)CCc2cccs2)=N[C@@H](c2ccccc2)C(C(=O)OC)=C1C	6	-7	0	-60	-4	-2	54*	i	eIF4H inh retest=-8;PABP polyA inh retest=81*
CCC(=O)N1CCc2cc(S(=O)(=O)CCC(=O)N(C)c3ccc(OC)cc3OC)ccc21	-4	1	-8	-8	2	1	-11	i
COc1ccc(S(=O)(=O)N(C)CC(=O)NCc2ccco2)cc1	-2	-4	4	.	-5	0	-3	i
O=c1c2ccccc2nc(N/N=C/c2ccc(O)cc2)n1O	-26	-13	2	.	2	5	-5	i
CCCCN(C)C(=O)c1ccc2c(c1)N(CC)C(=O)c1ccccc1S2(=O)=O	-9	-7	1	12	-1	2	-4	i
C#Cc1ccc([C@H]2C=C(C(=O)N3CCOCC3)O[C@@H](OCc3ccc(CO)cc3)C2)cc1	4&-20	-3	-14	-7[16.7 µM]	-4	-5	9	i
O=C(C1CCN(CCCc2ccccc2)CC1)N(CCc1ccccc1)Cc1ccccc1	-2	57	2	.	1	-1	15	i
O=C(CCC(=O)N1CCCCC1)Nc1ccc(Cl)c(Cl)c1	-10	-8	-5	-3	1	2	-2	i
COc1ccccc1CNC(=O)COC(=O)c1n[nH]c2ccccc12	.	2	-2	.	3	1	-7	i
Cc1ccc(F)cc1NC(=O)Cc1ncc(C(F)(F)F)cc1Cl	-7	-20	12	-16	-4	0	-3	i
O=C(C1CCC1)N1CCN(c2cccc(C(F)(F)F)c2)CC1	-10	-7	-6	15	-4	-1	-3	i

Structural class, the entries above with a halogen.
SMILES	UUG fidelity	CSC inhib	eIF4H inh	Env fusion inh	MT1-MMP act inh	MT1-MMP act inh RFP	PABP polyA inh	Rce1 inh	others
O=C(CCC(=O)N1CCCCC1)Nc1ccc(Cl)c(Cl)c1	-10	-8	-5	-3	1	2	-2	i
Cc1ccc(F)cc1NC(=O)Cc1ncc(C(F)(F)F)cc1Cl	-7	-20	12	-16	-4	0	-3	i
O=C(C1CCC1)N1CCN(c2cccc(C(F)(F)F)c2)CC1	-10	-7	-6	15	-4	-1	-3	i

Continued:
SMILES	UUG fidelity	CSC inhib	eIF4H inh	Env fusion inh	MT1-MMP act inh	MT1-MMP act inh RFP	PABP polyA inh	Rce1 inh	others
O=C(NCCN1C(=O)S/C(=C\c2cccs2)C1=O)c1ccco1	.	3	0	0	1	-1	6	i
CCCCc1nc(N2CCOCC2)c(C#N)c2c1COC(C)(C)C2	-2	-4	7	.	0	-2	-2	i
CCCc1cc(N2CCN(c3ccccn3)CC2)n2nc(C)c(-c3ccccc3)c2n1	-11	12	27	-31	-5	-5	12	i
CC(C)C[C@H]1CN([C@@H](Cc2ccccc2)CN2CCC[C@@H]2CN2C(=O)C(=O)NC[C@@H]2Cc2ccc(O)cc2)C(=O)C(=O)N1CC1CCCCC1	0	.	.	-14	2	5	.	.
CCOC(=O)c1c(NC(=O)c2ccc(N3C(=O)[C@@H]4[C@H](C3=O)[C@H]3C=C[C@@H]4C3)cc2)sc2c1CC(C)CC2 (some centres not stated)	.	49	-3	5	0	-4	99	i	eIF4H inh retest=1;PABP polyA inh retest=5
Cc1sc(NC(=O)c2cccs2)c(C(=O)OC(C)C)c1C	-4	4	0	-43	0	1	1	i
CCNS(=O)(=O)c1ccc(CCC(=O)N2CCCC2)cc1	-21	.	-10	0	-1	2	3	i
CCN(CC(=O)Nc1ccc2c(c1)OCCO2)C(=O)c1cc(Cl)nc2ccccc12	1	9	.	.	3	-1	.	.
CCN1CCN(c2nc(Nc3cccc(OC)c3)nc(N)c2[N+](=O)[O-])CC1	-33	21	-7	-17	1	-10	3	i
COc1ccc(-c2nnc(SC(C)C(=O)NNC(=O)c3ccc(C)cc3)o2)cc1 (configuration not stated)	.	-10	-2	.	-1	1	-3	i
O=NN(CCCl)C(=O)NCCc1cccc[n+]1[O-]	1	.	.	4	8	2	.	.
CC(C)(C)c1ccc(/C=N/NC(=O)C2CCCC2)cc1	20	5	0	53	6	0	5	i
COc1ccc(S(=O)(=O)Nc2ccccc2OC)cc1NC(=O)CC1CC2CCC1C2 (configuration not stated)	-14	17	-4	-4	-3	-14	3	i
CCC(C)(C)N(C(=O)CCC(=O)Nc1cc(C)on1)C(C(=O)NC(C)(C)C)c1ccc(OC)cc1 (configuration not stated)	6	-17	2	-4	-4	-2	10	i
CCCCn1cnc2c([nH]c3cc(OC)ccc32)c1=O	-14	15	-6	.	6	-1	-1	i
COc1cc([N+](=O)[O-])cc(/C=N/NC(=O)C(C)Nc2cccc(C)c2)c1O (configuration not stated)	.	.	2	4	2	4	-4	i
O=C(NCc1ccco1)C(c1ccncc1)N(C(=O)Cc1cccs1)c1ccccc1 (configuration not stated)	6	3	6	6	-6	0	6	i
Cc1cc(C)nc(SCc2nnc(SCC#N)n2-c2cccc(Cl)c2)n1	-33	-3	-7	.	4	1	-4	i
CCOC(=O)c1cc(C(C)(C)C)nc(SC)c1C#N	.	7	-5	5	-1	-1	-5	i
COc1cc(CN2CCCCC2C(=O)Nc2ccc(Oc3ccccc3)nc2)ccc1O (configuration not stated)	2	-2	-3	.	0	1	-7	i
CCCCC1(C(=O)OCC)NC(c2ccc(O)cc2)C2C(=O)N(c3ccccc3)C(=O)C21 (configuration not stated)	5	-10	4	3	0	0	5	.
COc1ccc(/C=C/C(=O)N(Cc2cccs2)C2CCS(=O)(=O)C2)cc1 (configuration not stated)	0	-13	-4	13	1	1	-14	i
NCCSSCCN	-17	2	-6	0	-1	1	16	i
CCCCNC(=O)C1(C)CCN1C(=O)c1cc(OC)ccc1Br (configuration not stated)	-11	.	.	5	3	5	.	.
CCCCn1c(N)c(N(CC)C(=O)C2CCCC2)c(=O)[nH]c1=O	-7	.	.	-11	4	0	.	.
Cc1cc(Cl)c2oc(C(=O)N(C)CCc3cnn(C)c3)c(C)c2c1	4	17	-11	9	3	2	-6	i
Cc1cccc(NC(=O)c2nc[nH]c2C(=O)N2CCC(C)CC2)c1	-17	-15	.	-6	-2	2	.	.
CCOC(=O)Cn1c(CN(Cc2ccccc2)Cc2ccccc2)nc2c1c(=O)[nH]c(=O)n2C	15	-6	-10	-18	-8	-6	-1	i
COc1ccc(N2C(=O)C(Cl)=C(NCc3ccccc3)C2=O)cc1	-13	2	4	.	-2	1	-3	i
O=C(COc1ccccc1Cl)NCCNC(=O)c1cnccn1	-15	-4	7	-12	2	1	15	i
CN(CCc1ccccn1)C(=O)CCC1CCCN(C(=O)NC2CCCCC2)C1 (configuration not stated)	.	-7	-21	3	-2	3	-2	i
COc1cc(/C=N/NC(=O)C(N)=O)ccc1OC(=O)c1cccs1	.	4	-5	-8	-2	5	-1	i
CC1CCN(C(=S)Nc2ccc(F)cc2)CC1	.	.	-6	14	0	0	-6	i
Cc1ccc(NC(=O)CN2C(=O)NC3(CCCCC3C)C2=O)cc1S(=O)(=O)N1CCCCC1 (configuration not stated)	-6	-2	.	1	16	4	.	i
CC(C)CC(NS(=O)(=O)c1cccc(C(=O)O)c1)C(=O)O (configuration not stated)	-15	-5	-4	-1	0	3	4	i
CCN(C(=O)COC(=O)COc1ccc2c(C)cc(=O)oc2c1)C1CCS(=O)(=O)C1 (configuration not stated)	.	-3	-6	-6	2	0	0	i
COc1ccccc1NC(=O)c1ccc(NC(=O)CN(C)Cc2ccccc2F)cc1	.	1	10	15	-1	0	0	i
O=C(Nc1ccc2nc3n(c(=O)c2c1)CCCCC3)c1cc([N+](=O)[O-])ccc1F	-4	?	3	-3	-22	-19	4	i
O=C(Nc1ccccc1C(=O)O)c1cccc(F)c1	-19	-2	.	.	2	7	.	i
Cc1ccc(C(C)(C)C)cc1S(=O)(=O)Nc1cccc(S(=O)(=O)NC2=NCCC2)c1	-7	.	0	4	-2	-4	0	i
O=C(COC(=O)c1ccccn1)Nc1ccccc1OC(F)F	.	-18	12	9	-2	1	-7	.
CC(Oc1ccccc1)c1ccnc(N)n1 (configuration not stated)	-26	3	-8	23	-1	4	-2	i
CCc1ccccc1N(CC(=O)N1CCN(c2ccc(F)cc2)CC1)S(C)(=O)=O	-26	-7	-2	.	-3	-4	8	.
Cc1nn(-c2cccc(C(F)(F)F)c2)c(Cl)c1/C=N/n1cnnc1	.	4	-4	.	2	-2	-9	i
CCN(CC)C(=O)[C@H]1C[C@H](CC(=O)NCCCOC)C(=O)N2CCc3c([nH]c4cc(-c5ccco5)ccc34)[C@]12C	3	.	.	7	0	-1	.	.
O=C(Nc1ccccc1Cl)C1CC(=O)N(c2ccccc2)C1 (configuration not stated)	4	-3	0	-8	3	2	5	i
Cn1c(=O)[nH]c(=O)c2c1nc(SCC(=O)O)n2CCc1ccccc1	-21	-16	-8	.	4	5	21	i
CCc1ccc(NC(=O)C2CCC(CNC(=O)[C@@H]3Cc4ccccc4CN3)CC2)cc1 (some centres not stated)	-13	-3	-7	-2	1	-3	6	i
Cc1ccccc1Cn1cc(S(=O)(=O)CC(=O)Nc2nccs2)c2ccccc21	-34	6	-6	.	-1	-15	-4	i
CCCN(C(=O)Cc1coc2cc(C)c(C)cc12)c1c(N)n(Cc2ccccc2)c(=O)[nH]c1=O	.	-3	.	-17	1	-3	.	i
CC(C(=O)NCc1ccc(F)cc1)n1ccc2cc(S(=O)(=O)N3CCCC3)ccc21 (configuration not stated)	-13	-9	-6	7	3	-3	-15	i
CC1CCc2sc(-c3n[nH]c(=S)o3)cc2C1 (configuration not stated)	.	-8	-2	-31	2	8	12	?
Cc1cc(CN(C)Cc2ccc(OCC(O)CN(C)Cc3ccccc3)cc2)on1 (configuration not stated)	5	13	-1	-4	3	8	-8	i
CCN1C(=O)[C@H]2[C@@H](c3ccc(-c4ccc(C(C)=O)cc4)cc3)N3CCCC[C@@]3(C(=O)OC)[C@H]2C1=O	-4	12	.	41	6	-7	.	i
O=C(NCC(=O)N(c1ccccc1)C(C(=O)NC1CCCCC1)c1cccnc1)c1ccco1 (configuration not stated)	-5	9	-15	37	1	-3	-7	i
CCc1ccc(C(=O)OCC(=O)Nc2c(C)n(C)n(-c3ccccc3)c2=O)cc1	6	.	.	4	3	4	.	.
CCC1CCCCN1C(=O)c1ccc2c(c1)C(=O)N(c1ccc(C)cc1)C2=O (configuration not stated)	-15	.	-3	-15	-3	0	6	i
O=C1CN(C(=O)COC(=O)CCC(=O)c2ccc3c(c2)OCCO3)c2ccccc2N1	-20	-10	2	.	-5	1	4	i
O=C(Nc1ccc(N2CCOCC2)c(Cl)c1)c1ccc(F)cc1	-14	-1	1	.	13	0	-3	i
